From PubChem BioAssay
VDR inh: blocks the human vitamin D receptor | AID 504847 | P11473 | VDR-SRC2-3 peptide fluorescence polarization, 2 h | Potency, µM, without a hit: max response, negative = inhibition, usual class: inhibitors | hit rate 0.93% among 400,000; active means well fitted inhibition curve with a large enough effect; inconclusive means small, poorly fitted or top-dose-only effect, or another doubt; inactive means no such curve, though single readings can be large or run the other way; further: series mostly up to about 120 µM
Target sequence (P11473 whole entry, looked up): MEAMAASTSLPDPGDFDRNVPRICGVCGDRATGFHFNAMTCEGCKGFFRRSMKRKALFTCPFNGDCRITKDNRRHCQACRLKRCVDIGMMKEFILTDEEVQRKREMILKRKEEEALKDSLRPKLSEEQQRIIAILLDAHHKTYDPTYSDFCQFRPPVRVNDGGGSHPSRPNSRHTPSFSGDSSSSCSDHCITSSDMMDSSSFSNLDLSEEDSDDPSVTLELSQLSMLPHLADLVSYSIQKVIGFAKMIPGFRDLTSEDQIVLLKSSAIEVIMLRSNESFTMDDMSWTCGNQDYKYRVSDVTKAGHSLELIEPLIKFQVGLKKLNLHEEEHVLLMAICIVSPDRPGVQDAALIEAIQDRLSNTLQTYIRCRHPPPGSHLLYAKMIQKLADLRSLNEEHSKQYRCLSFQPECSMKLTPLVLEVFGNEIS
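Fluorescence polarization assay measuring small-molecule disruption of VDR binding to the coregulator peptide SRC2-3. Compounds were pin-transferred (23 nl) into the reagent mix and incubated 2 h at room temperature before reading.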
* marks the source's active call; other numbers are inactive results; ? = inconclusive; & = joins results of further samples; [ ] = remark or other dose. On the % scale 0 is the no-effect control and ±100 the full control effect; potency means the concentration at half of the fitted maximal effect. An excerpt, so the mix of outcomes need not match the whole.

VDR inh,SMILES
4%,O=S(=O)(c1ccc(N2CCOCC2)nc1)N1CCOCC1
-9%,CCN(c1ccccc1)S(=O)(=O)c1ccc(OC)c(NC(=O)c2c(C)noc2C)c1
4%,Cc1ccc(Cl)cc1N1CCN(S(=O)(=O)c2ccc3[nH]c(=O)ccc3c2)CC1
11%,O=C(Nc1ccccc1)C1=C[C@@H](c2coc3ccccc3c2=O)C[C@@H](OCCCCO)O1
-27%,O=C(CC(SCCO)c1ccc2c(c1)OCO2)c1ccco1 (configuration not stated)
2%,COc1ccc(S(=O)(=O)c2cn(C)c3cc(N4CCCC4)c(F)cc3c2=O)cc1
-23%,CC(C)c1c(C(=O)N/N=C/c2ccc(C(F)(F)F)cc2)nnn1-c1nonc1N
13%,O=[N+]([O-])c1cc(/C=N/N2CCCCC2)ccc1Cl
-16%,Cc1ccc(CNC(=O)CN2C(=O)NC(C)(c3cccc(Br)c3)C2=O)cc1 (configuration not stated)
5%,CCc1ccccc1Nc1nn2c(=O)c3ccc(C(=O)NCc4ccccc4Cl)cc3nc2s1
5%,CCCC[C@@H]1CCCO[C@@](C(=O)NCCN2CCOCC2)(C(F)(F)F)C1
-7%,NC(=O)Nn1c(CCC(=O)O)ccc1-c1ccc(Br)cc1
-10%,CC(C)c1ccc(OCc2nc(-c3ccccn3)no2)c(Br)c1
-4%,Cc1cccc(NC(=O)CSc2nc3nc4c(cc3c(=O)n2-c2ccccc2)CCCC4)c1
-25%,Cc1ccc(C)c(Cn2c(=O)c3c(nc4n3CCN4Cc3ccco3)n(C)c2=O)c1
4%,O=C(NC1CCCCCC1)C1CCN(S(=O)(=O)c2cccc3cccnc23)CC1
?,Cc1ccc(-c2csc(NC(=O)c3cccc(N4C(=O)CCC4=O)c3)n2)o1
13%,CCOC(=O)c1ccc(S(=O)(=O)N2CCN(c3ccccn3)CC2)cc1
-23%,O=C(c1ccccc1)N1N=C(C(F)(F)F)CC1(O)c1ccc(F)cc1 (configuration not stated)
-3%,COc1ccccc1CN(CC(=O)NCc1ccco1)C(=O)CNS(=O)(=O)c1ccc(C)cc1
-10%,COc1cccc(CN(C)C(=O)c2ccc3c(=O)n4c(nc3c2)CCC4)c1OC
6%,CCc1cc(=O)oc2cc(C)cc(OCC(=O)NCc3ccccn3)c12
-8%,Cc1ccccc1CC1(CO)CCCN(C(=O)Cc2c(F)ccc(F)c2F)C1 (configuration not stated)
-11%,O=P(CCC(F)(F)F)(CCC(F)(F)F)CCC(F)(F)F
-5%,Cn1nnnc1SCC(=O)Nc1c(Cl)cccc1Cl

Next part, starting with the last 3 of the part before.
VDR inh,SMILES
-8%,Cc1ccccc1CC1(CO)CCCN(C(=O)Cc2c(F)ccc(F)c2F)C1 (configuration not stated)
-11%,O=P(CCC(F)(F)F)(CCC(F)(F)F)CCC(F)(F)F
-5%,Cn1nnnc1SCC(=O)Nc1c(Cl)cccc1Cl
6%,COc1ccc(-c2coc3cc(OC)cc(O)c3c2=O)cc1
10%,COc1cccc(-n2c(SCc3ccccc3C)nc3c([nH]c4ccccc43)c2=O)c1
8%,O=C(O)c1cccc(NN=C2c3ccccc3-c3ccccc32)c1
-22%,Cc1noc(/C=C/c2ccco2)c1S(=O)(=O)N1CCC(C(=O)Nc2ccc(Cl)cn2)CC1
-7%,Nc1nnc(Cc2cccc(Br)c2)s1
-13%,O=C(c1ccc(Br)s1)N1CCN(Cc2ccc3c(c2)OCO3)CC1
-9%,CN1CCN(c2ccc(NC(=O)c3ccc(-c4ccc(Cl)cc4)o3)cc2)CC1
-3%,CCOc1ccc(CCNC(=O)c2ccc3c(=O)n4c(nc3c2)CCCCC4)cc1
-16%,Cc1ccccc1C(=NCCCN(C)C)c1ccccc1C
-27%,COc1ccc(Cl)cc1S(=O)(=O)n1ccnc1C(C)C
-2%,CC(=O)N1c2ccc(S(=O)(=O)NCC3CCC(C(=O)Nc4cccc(F)c4)CC3)cc2CC1C (configuration not stated)
13%,Cc1ccc(N(C(=O)CNC(=O)c2ccco2)C(C(=O)NC2CCCC2)c2cccnc2)cc1F (configuration not stated)
?,Cc1nc(Nc2ccc(Cl)cc2)c2oc3ccccc3c2n1
13%,Cn1c(=O)c2cc(S(=O)(=O)Nc3ccc4c(c3)OCO4)ccc2n(C)c1=O
0%,C=CCc1cccc2cc(C(=O)NCCc3c(C)[nH]c4c(C)cccc34)c(=O)oc12
0%&7%,O=C(O)CCn1ccc2cc(S(=O)(=O)N3CCCCCC3)ccc21
-2%,COc1ccc2ccccc2c1CNCCCN1CCOCC1
2%,CCc1cccc2c(C#N)cn(CC(=O)NCc3ccco3)c12
-2%,CCOC(=O)/C=C/[C@H]1CCc2cccc(C)c2O1
-17%,COc1cc(C2C(C#N)=C(N)OC3=C2C(=O)CCC3)cc2c1OCO2 (configuration not stated)
-9%,Cn1c(NNC(=O)/C=C/c2ccc3c(c2)OCO3)cc(=O)n(C)c1=O
1%,CCC(CC)C(=O)N(c1ccc(F)cc1)C1C=CS(=O)(=O)C1 (configuration not stated)
14%,CC1CCCCN1C(=O)c1cc(Cl)ccc1[N+](=O)[O-] (configuration not stated)
-16%,O=C(COC(=O)CSc1ccc(Br)cc1)NCc1ccco1
1%,O=C(CO/N=C/c1ccc(OC(F)F)cc1)NC1CCCCCC1

As entered above:
VDR inh, CC(C)c1ccc(OCc2nc(-c3ccccn3)no2)c(Br)c1 = -10%
VDR inh, Cn1c(=O)c2cc(S(=O)(=O)Nc3ccc4c(c3)OCO4)ccc2n(C)c1=O = 13%
VDR inh, CCc1ccccc1Nc1nn2c(=O)c3ccc(C(=O)NCc4ccccc4Cl)cc3nc2s1 = 5%

Later entries.
VDR inh,SMILES
7%,Cc1ccc(NC(=S)Nc2cc(C)on2)cc1
-6%,COc1ccccc1C(=O)NCC(=O)NCC1(N2CCCCC2)CCCCC1
-26%,O=C(COC(=O)/C=C/c1ccc(Br)o1)NC1CCCCC1
-23%,CSc1nc2ccc(S(=O)(=O)N3CCCCC3)cc2s1
-19%,CCCc1cnc(N2CCN(C(=S)NC)CC2)nc1
8%,O=C(COc1ccccc1)NCCc1csc(-c2ccc(F)cc2)n1
-1%,C[C@H](CO)N1C[C@H](C)[C@@H](CN(C)C(=O)Nc2ccc3c(c2)OCO3)Oc2ccc(NS(=O)(=O)c3cn(C)cn3)cc2C1=O
-13%,Cc1cc(N2CCN(C3CCCCC3)CC2)nc2cccc(O)c12
-8%,Fc1ccc(C2CCCCN2Cc2nc(CC3CC3)no2)cc1 (configuration not stated)
4%,O=C(Nc1ccc(Cl)cc1)c1cccs1
5%,c1ccc(N2CCN(Cc3nnc(-c4ccc5c(c4)OCO5)o3)CC2)cc1
-22%,Cc1nc2ccc(S(=O)(=O)NC(C(=O)Nc3nc4ccc(Cl)cc4s3)C(C)C)cc2s1 (configuration not stated)
-13%,CCc1cccc(C)c1NC(=O)C1CCN(S(=O)(=O)c2cccc3nonc23)CC1
-3%,Cn1c(Cn2c(=O)sc3ccccc32)nnc1SCc1ccccn1
?,Cc1ncc([N+](=O)[O-])n1CCOC(=O)NC(NCc1cccnc1)C(Cl)(Cl)Cl (configuration not stated)
-6%,O=C(NCCc1cccc(Cl)c1)c1cccc(-n2cnnn2)c1
1%,Cc1ccc(CNC(=O)c2cc(-c3ccc(C)c(C)c3)nc3ccccc23)cc1
-14%,Cc1ccc(N2CC(NC(=O)C(=O)c3c[nH]c4ccccc34)CC2=O)cc1 (configuration not stated)
-6%,COc1cc(-c2nc3ccc(C)cn3c2Nc2ccc3c(c2)OCCO3)ccc1O
10%,CCOc1ccccc1C(=O)NCC(=O)NNC(=O)CN(C)S(=O)(=O)c1ccc(Cl)cc1
-17%,COc1ccc(-c2nn3c(-c4ccc(OC)cc4)nnc3c3ccccc23)cc1
12%,Cc1ccc(C)c(N2CCN(C(=O)CCCn3c(=S)[nH]c4cc5c(cc4c3=O)OCO5)CC2)c1
-11%,O=C(NNC(=O)c1ccccc1F)c1ccc(NS(=O)(=O)c2ccc(F)cc2)cc1
-28%,COC(=O)c1sccc1-c1ccc(C(=O)Nc2cccc(Cl)c2)o1
-8%,O=C(Cc1nnc(NC(=O)c2ccccc2)s1)N/N=C/c1cccc(O)c1
-3%,CC12CCC3c4ccc(O)cc4CCC3C1CC(O)C2O (configuration not stated)
-8%,CN(C(=O)CC1C(=O)NCCN1Cc1cccc(F)c1F)C1CC(C)(C)NC(C)(C)C1 (configuration not stated)
-11%,COc1ccc(C(=O)NCCc2c[nH]c3ccccc23)cc1S(=O)(=O)N1CCCCC1C (configuration not stated)
-13%,Cn1c(=O)nc2n(-c3ccc(Br)cc3)c3cccc(Cl)c3cc-2c1=O
14%,CCCC(=O)N=c1sc2c(OC)ccc(OC)c2n1C
-14%,CCOC(=O)c1nc(SC)n(C)c1C(=O)OCC
2%,CCOC(=O)N1CCN(S(=O)(=O)c2c(C)nn(C)c2C)CC1
4%,Cc1ccc(C(=O)Nc2ccc(CN3CCS(=O)(=O)CC3)cc2)cc1C
-6%,NS(=O)(=O)c1ccc(N/N=C/c2ccc3c(c2)OCO3)c([N+](=O)[O-])c1
-24%,c1ccc(COc2ccc(OCCCN3CCCCC3)cc2)cc1
1%&-9%,CC(=O)[C@H]1CC[C@H]2C3CC=C4C[C@@H](O)CC[C@]4(C)C3CC[C@]12C (some centres not stated)
7%,Cn1c(C(=O)Nc2ccc(OC(F)(F)F)cc2)cc2c(=O)n3ccccc3nc21
6%,COc1cccc(NS(=O)(=O)c2ccc3[nH]cc(C(=O)NCCC(C)C)c(=O)c3c2)c1
-20%,Cc1ccc(C)c(S(=O)(=O)N2CCN(C(=O)CCNS(=O)(=O)c3ccc(C)c(C)c3)CC2)c1
-6%,Oc1ccc(C2=NNC(=NCc3ccc4c(c3)OCO4)SC2)c(O)c1
-12%,Cc1ccc(C)c(N(CC(=O)NCc2ccccc2)C(=O)c2csnn2)c1
-22%,COc1ccc(C(=O)N2CCC3(CCCN(C)C3)CC2)cc1
?,CC(NC(=O)Cn1ncc(Cl)c(Cl)c1=O)C12CC3CC(CC(C3)C1)C2 (configuration not stated)
-3%,O=C(NC(=S)Nc1ccc(S(=O)(=O)Nc2ccccc2)cc1)C1CC1
-18%,CCOC(=O)CSc1nc(-c2ccc(C)cc2C)cc(-c2ccccc2)c1C#N
10%,O=c1c2cc(NC(=S)NC3CCCCC3)ccc2nc2n1CCCCC2
16%,O=C(c1cc2ccccc2c(=O)o1)N1CCCCCC1
-5%,Cc1ccc(S(=O)(=O)NCCCN2CCOCC2)c(C)c1
19%,Cc1cc(C(=O)CSc2nnc(N)s2)c(C)n1-c1c(C)n(C)n(-c2ccccc2)c1=O
-15%,C=COCCNC(=S)Nc1cccc(Cl)c1

Later entries
VDR inh,SMILES
12%,O=C(Oc1c(-c2ccccc2)c(=O)n2c3c(cccc13)CC2)c1ccco1
?,CN(C)c1ccc(-c2nc(N3CCNCC3)c3ccccc3n2)cc1
12%,COc1ccc(S(=O)(=O)N2CCCC(C(=O)NC3CC3)C2)cc1OC (configuration not stated)
-12%,CCOCCCNC(=S)N1CCN(CC)CC1
-5%,O=C(CCS(=O)(=O)c1ccc(Br)cc1)N1CCN(c2ccc(Cl)cc2)CC1
3%,O=C(COC(=O)c1cccc(S(=O)(=O)NCc2ccccc2)c1)NC1CC1
-12%,Cc1ccc(C2=NNC3(CCOC(C)(C)C3)S2)cc1 (configuration not stated)
?,Cc1cc(N2CCCC2)c(F)cc1/C=C\[N+](=O)[O-]
-11%,COC(=O)CCC(C)C1CCC2C3CC[C@H]4CC(O)CC[C@@]4(C)C3CC(O)[C@]12C (some centres not stated)
-3%,COc1ccccc1Nc1cc(C(=O)NCCCN(C)C2CCCCC2)c2ccccc2n1
-9%,CCC(C(=O)NC1CCCC1)N(C(=O)c1snc(C(N)=O)c1N)c1ccc(OC)cc1 (configuration not stated)
2%,CCCCn1c(N)c(N(CC(C)C)C(=O)C2CCCN(C(=O)c3ccc(Cl)cc3)C2)c(=O)[nH]c1=O (configuration not stated)
-3%,COc1ccc(Cn2ccnc2SCC(=O)Nc2ccccc2OC)cc1
-12%,COc1ccc2ccn(S(=O)(=O)c3ccccc3)c2c1
-2%,c1ccc(Cn2c(NCc3ccccn3)nc3ccccc32)cc1
30%[activator],CSc1nc(Oc2ccc3ccccc3c2)c2sccc2n1
-1%,O=C(NCc1ccc(N2CCCC2=O)cc1)c1cnccn1
0%,Cc1cccc(N2CCN(C(=O)c3cc4c(=O)n(C)c5ccccc5c4n3C)CC2)c1C
-17%,O=C(COC(=O)CCC(=O)c1ccc(Cl)cc1)NCCc1ccccc1
-1%,Cc1cc(=O)oc2c(CN3CCCCC3)c(O)c(Cl)cc12
-16%,NNC(=O)c1cc(Cl)ccc1Cl
-12%,COc1ccc(CNC(=O)C/C(C)=N/NC(=O)c2cnccn2)cc1
15%,O=C(CSc1cccc[n+]1[O-])c1ccccc1Br
-6%,O=C(NCC(c1ccco1)N1CCCCC1)c1cccs1 (configuration not stated)
-1%,O=c1ccn([C@@H]2O[C@H](COP(=O)(O)OP(=O)(O)OP(=O)(O)O)[C@@H](O)[C@H]2O)c(=O)[nH]1
12%,CC(=O)Nc1ccc(NC(=O)CSc2ccc(-c3ccc(-n4ccnc4)cc3)nn2)cc1
12%,CCOc1ccc(-c2nc(CSCC(=O)N3CCN(c4ccc(F)cc4)CC3)c(C)o2)cc1

Shown as labelled records: part of the list above.
> COc1ccc(CNC(=O)C/C(C)=N/NC(=O)c2cnccn2)cc1
  VDR inh = -12%
> O=C(CSc1cccc[n+]1[O-])c1ccccc1Br
  VDR inh = 15%
> O=C(NCC(c1ccco1)N1CCCCC1)c1cccs1 (configuration not stated)
  VDR inh = -6%
> O=c1ccn([C@@H]2O[C@H](COP(=O)(O)OP(=O)(O)OP(=O)(O)O)[C@@H](O)[C@H]2O)c(=O)[nH]1
  VDR inh = -1%

Three entries from above, sorted by the value under VDR inh, largest number first:
smiles	VDR inh
CCOc1ccc(-c2nc(CSCC(=O)N3CCN(c4ccc(F)cc4)CC3)c(C)o2)cc1	12%
Cc1cccc(N2CCN(C(=O)c3cc4c(=O)n(C)c5ccccc5c4n3C)CC2)c1C	0%
COc1ccccc1Nc1cc(C(=O)NCCCN(C)C2CCCCC2)c2ccccc2n1	-3%
